# UUG fidelity: yeast start codon fidelity modulation; S. cerevisiae UUG-firefly luciferase reporter, luminescence/redox ratio; activity score, % at 18.7 µM; 0.13% of 350,000 active; AID 602363;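 active = replicate mean at a twofold rise or more, about +100% in these data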;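 also: firefly luciferase made from a UUG start codon reports start codon fidelity; reporter light over untreated wells divided by growth signal over untreated wells; some hits fall short of that in this replicate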
# An asterisk follows results filed as active.
SMILES,UUG fidelity
O=C(CN1CCOCC1)N1CCCCN2[C@@H](CO)[C@H](c3ccc(C#Cc4ccccc4F)cc3)[C@@H]2C1,17.2
COCC(=O)N(C[C@H]1N[C@@H](CO)[C@@H]1c1ccc(C2=CCCC2)cc1)C(C)C,-3.4
O=S(=O)(Cc1ccccc1)N1CCCCN2[C@@H](CO)[C@@H](c3ccc(-c4cccnc4)cc3)[C@@H]2C1,0.4
CCNC(=O)[C@H]1[C@H](CO)[C@H]2Cn3c(ccc(-c4ccccc4)c3=O)[C@H]2N1C(=O)C1CCC1,-6.5
CO[C@H]1CN(C)C(=O)c2cc(NS(=O)(=O)CC(F)(F)F)ccc2OC[C@@H](C)N(Cc2ccccn2)C[C@H]1C,-15.4
O=C(c1ccccn1)N1C[C@@H]2[C@H](c3ccccc31)[C@H](CO)N2C(=O)Cc1ccccc1,-13.5
CCC(=O)Nc1ccc2c(c1)OC[C@@H](C)N(C(=O)C1CCC1)C[C@@H](C)[C@H](OC)CN(C)C2=O,4.5
CN(C)CCCNC(=O)C[C@H]1CC[C@@H]2[C@@H](COc3ccc(NC(=O)c4ccccc4F)cc3C(=O)N2C)O1,-1.3
CC(=O)N1[C@H](CNC(=O)CN(C)C)[C@H](c2ccc(C3=CCCC3)cc2)[C@@H]1CO,-2.8
Cc1ccc(S(=O)(=O)Nc2ccc3c(c2)C(=O)N([C@H](C)CO)C[C@H](C)[C@H](CN(C)Cc2ccncc2)O3)cc1,-20.3
CC(C)CC#Cc1ccc([C@@H]2[C@H](CO)N3CCCCN(S(=O)(=O)c4ccc(F)cc4)C[C@@H]23)cc1,6.1
O=C(CN1CCOCC1)N1CCCCN2[C@H](CO)[C@@H](c3ccc(-c4ccccc4)cc3)[C@H]2C1,-13.3

# Next compounds follow.
SMILES,UUG fidelity
C[C@@H]1CN([C@@H](C)CO)C(=O)c2cc(NC(=O)Nc3cccc4ccccc34)ccc2O[C@H]1CN(C)S(=O)(=O)c1ccc(Cl)cc1,4.9
CN(C[C@@H]1N[C@H](CO)[C@@H]1c1ccc(C2=CCCCC2)cc1)S(C)(=O)=O,-23.2
CCC(=O)Nc1ccc2c(c1)C(=O)N(C)C[C@@H](OC)[C@@H](C)CN(Cc1cccnc1)[C@H](C)CO2,-4.7
O=C(Nc1ccccc1Cl)N1[C@@H](CO)[C@@H]2c3ccccc3NC[C@@H]21,13.7
CCCC#Cc1ccc([C@@H]2[C@@H](CO)N3CCCCN(C(=O)NC4CCCC4)C[C@H]23)cc1,3.0
CC(C)CC#Cc1ccc([C@@H]2[C@H](CO)N3CCCCN(C(=O)c4ccc5c(c4)OCO5)C[C@@H]23)cc1,-4.2
Cn1cnc(S(=O)(=O)N2CCCCN3[C@H](C2)[C@H](c2ccc(C4=CCCCC4)cc2)[C@@H]3CO)c1,5.4
CO[C@H]1CN(C)C(=O)c2ccc(NC(=O)NC(C)C)cc2OC[C@@H](C)N(Cc2ccc(-c3ccccn3)cc2)C[C@@H]1C,-3.9
COc1ccc(CN(C)C[C@H]2Oc3ccc(NC(=O)c4ccncc4)cc3C(=O)N([C@H](C)CO)C[C@@H]2C)cc1,-15.3
CN1c2ccc(-c3ccc(F)cc3)cc2[C@@H]2[C@@H](CCN2S(=O)(=O)c2cccc(F)c2)[C@@H]1CO,1.8
O=S(=O)(c1ccccc1)N1CCCCN2[C@H](CO)[C@H](c3ccc(C#Cc4cccnc4)cc3)[C@@H]2C1,18.1
CCCNC(=O)NC[C@@H]1[C@H](c2ccc(C3=CCCC3)cc2)[C@H](CO)N1C(C)=O,-7.0

# (next part)
SMILES,UUG fidelity
C[C@@H]1CN([C@H](C)CO)C(=O)c2c(c3ccccc3n2C)-c2ccccc2CO[C@H]1CN(C)CC1CC1,75.1
Cc1cccc(S(=O)(=O)N2CCCCN3[C@H](CO)[C@H](c4ccc(C#CC5CC5)cc4)[C@H]3C2)c1,1.1
Cc1cccc(S(=O)(=O)N2CCCCN3[C@H](CO)[C@@H](c4ccc(C#C[C@@H](C)O)cc4)[C@@H]3C2)c1,7.2
COCC(=O)N1CC[C@@H]2[C@H]1c1cc(-c3ccccc3)ccc1N(C)[C@@H]2CO,-0.4
O=C(Cc1ccccc1)N1C[C@H]2[C@@H](c3ccccc31)[C@H](CO)N2C(=O)c1cccc(F)c1,11.9
CN(C)C(=O)C[C@H]1C[C@H]2c3cc(NC(=O)Cc4ccncc4)ccc3O[C@H]2[C@@H](CO)O1,-8.7
CO[C@@H]1CN(C)C(=O)c2cc(NC(=O)C3CCC3)ccc2OC[C@@H](C)N(S(=O)(=O)c2ccc(Cl)cc2)C[C@H]1C,15.7
CO[C@@H]1CN(C)C(=O)c2ccc(NS(=O)(=O)c3ccc(-c4ccccc4)cc3)cc2OC[C@H](C)NC[C@@H]1C,7.3
Cc1ccc(S(=O)(=O)N(C)C[C@H]2Oc3ccc(N(C)C)cc3C(=O)N([C@H](C)CO)C[C@H]2C)cc1,5.0
CC(=O)N1[C@@H](CO)[C@H](c2ccccc2)[C@@H]1CN(C)C(=O)CN1CCOCC1,-0.3
O=S(=O)(c1ccccc1)N1CCCCN2[C@H](C1)[C@@H](c1ccc(C#Cc3cccnc3)cc1)[C@@H]2CO,-5.6
CN1CCN(C(=O)C[C@@H]2CC[C@H]3[C@@H](COC[C@@H](O)CN3Cc3cccc(Cl)c3)O2)CC1,9.9

# New compounds follow
SMILES,UUG fidelity
C[C@H]1CN([C@@H](C)CO)C(=O)Cc2cc(NS(=O)(=O)c3ccccc3)ccc2O[C@@H]1CN(C)C(=O)NC1CCCCC1,-0.8
C/C=C/c1ccc([C@@H]2[C@H](CO)N3CCCCN(C(=O)CN(C)C)C[C@@H]23)cc1,-3.8
CC(=O)N1CCCCN2[C@H](CO)[C@@H](c3ccc(-c4ccccc4)cc3)[C@H]2C1,-7.0
CCC(=O)N1CC[C@@H]2[C@H]1c1cc(C#Cc3ccccc3)ccc1N[C@@H]2CO,0.2
C[C@@H]1CN([C@H](C)CO)C(=O)Cc2cc(NC(=O)CCN3CCOCC3)ccc2O[C@H]1CN(C)C,3.1
C[C@H]1CN([C@@H](C)CO)C(=O)c2cc(NC(=O)Nc3ccc(C(F)(F)F)cc3)ccc2O[C@H]1CN(C)C(=O)NC1CCCCC1,-5.9
COc1ccc(CN(C)C[C@@H]2Oc3c(NC(=O)c4ccc(-c5nccs5)cc4)cccc3C(=O)N([C@H](C)CO)C[C@@H]2C)cc1,-1.0
CC(C)(O)C#Cc1ccc([C@@H]2[C@@H](CO)N3CCCCN(Cc4ccccc4F)C[C@@H]23)cc1,1.1
COc1ccccc1-c1ccc([C@@H]2[C@@H](CO)N3CCCCN(C(=O)c4ccncc4)C[C@H]23)cc1,-5.8
O=C(c1ccccn1)N1CC[C@@H]2[C@H](CO)Nc3ccc(-c4cccc(F)c4)cc3[C@@H]21,10.0
CCC(=O)Nc1ccc2c(c1)C(=O)N(C)C[C@H](OC)[C@@H](C)CN(C(=O)c1cnccn1)[C@H](C)CO2,9.7
C[C@H](CO)N1C[C@H](C)[C@H](CN(C)C(=O)Nc2ccccc2)Oc2c(NS(=O)(=O)c3ccc(Cl)cc3)cccc2C1=O,1.3

# 7 entries from above, ordered by their value in UUG fidelity, ascending.
SMILES,UUG fidelity
CC(=O)N1CCCCN2[C@H](CO)[C@@H](c3ccc(-c4ccccc4)cc3)[C@H]2C1,-7.0
COc1ccccc1-c1ccc([C@@H]2[C@@H](CO)N3CCCCN(C(=O)c4ccncc4)C[C@H]23)cc1,-5.8
COc1ccc(CN(C)C[C@@H]2Oc3c(NC(=O)c4ccc(-c5nccs5)cc4)cccc3C(=O)N([C@H](C)CO)C[C@@H]2C)cc1,-1.0
CC(C)(O)C#Cc1ccc([C@@H]2[C@@H](CO)N3CCCCN(Cc4ccccc4F)C[C@@H]23)cc1,1.1
C[C@H](CO)N1C[C@H](C)[C@H](CN(C)C(=O)Nc2ccccc2)Oc2c(NS(=O)(=O)c3ccc(Cl)cc3)cccc2C1=O,1.3
C[C@@H]1CN([C@H](C)CO)C(=O)Cc2cc(NC(=O)CCN3CCOCC3)ccc2O[C@H]1CN(C)C,3.1
CCC(=O)Nc1ccc2c(c1)C(=O)N(C)C[C@H](OC)[C@@H](C)CN(C(=O)c1cnccn1)[C@H](C)CO2,9.7

# Remaining list, next part:
SMILES,UUG fidelity
CN1CCCCN2[C@@H](CO)[C@H](c3ccc(-c4ccccc4)cc3)[C@@H]2C1,-6.6
CO[C@H]1CN(C)C(=O)c2cc(NC(C)=O)ccc2OC[C@H](C)N(CC2CC2)C[C@H]1C,-8.4
C[C@H]1CN([C@@H](C)CO)C(=O)c2cc(NC(=O)Cn3cnnn3)ccc2O[C@H]1CN(C)S(=O)(=O)c1cn(C)cn1,-10.0
COc1ccc(S(=O)(=O)Nc2ccc3c(c2)[C@@H]2C[C@H](CC(=O)O)O[C@H](CO)[C@@H]2O3)cc1,-5.3
C[C@H]1CN([C@@H](C)CO)C(=O)c2c(c3ccccc3n2C)-c2ccccc2CO[C@@H]1CN(C)CC1CC1,3.9
CNC[C@H]1Oc2ccc(NC(=O)Nc3ccc(F)cc3)cc2CC(=O)N([C@@H](C)CO)C[C@@H]1C,6.3
C[C@H]1CN([C@@H](C)CO)C(=O)Cc2cc(NC(=O)CCC(F)(F)F)ccc2O[C@@H]1CN(C)S(=O)(=O)c1ccccc1,5.4
C[C@H](CO)N1C[C@H](C)[C@@H](CN(C)CC2CCCCC2)Oc2ccc(NC(=O)Cc3cn(C)c4ccccc34)cc2C1=O,4.3
COc1ccccc1C#Cc1ccc([C@@H]2[C@@H](CO)N3CCCCN(C(=O)C4CC4)C[C@H]23)cc1,25.7
CCCNC(=O)Nc1ccc2c(c1)C(=O)N(C)[C@@H]1CC[C@H](CC(=O)OC)O[C@H]1CO2,-15.0
CCCN1C[C@H](C)[C@@H](OC)CN(C)C(=O)c2cc(NC(=O)c3cccc(F)c3)ccc2OC[C@H]1C,11.4
CO[C@H]1CN(C)C(=O)c2ccc(NC(=O)C3CC3)cc2OC[C@H](C)N(C(=O)c2cccnc2)C[C@H]1C,-9.5

# Other compounds.
SMILES,UUG fidelity
Cc1ccc(S(=O)(=O)N2CC[C@H]3[C@@H](CO)N(C)c4ccc(-c5ccccc5F)cc4[C@H]32)cc1,4.8
COCC(=O)Nc1ccc2c(c1)C(=O)N(C)C[C@@H](OC)[C@H](C)CN(C(=O)c1ccccn1)[C@@H](C)CO2,-9.9
C[C@H](CO)N1C[C@H](C)[C@H](CN(C)C(=O)Nc2cccc3ccccc23)Oc2c(NC(=O)C3CCCCC3)cccc2C1=O,-3.3
C[C@H]1CN([C@@H](C)CO)C(=O)c2cc(NC(=O)Cc3ccccc3)ccc2O[C@@H]1CN(C)C(=O)Nc1ccc(F)cc1,11.5
COC(=O)C[C@H]1CC[C@H]2[C@H](COc3ccc(NC(=O)c4cscn4)cc3C(=O)N2C)O1,-6.1
C[C@H](CO)N1C[C@H](C)[C@H](CN(C)S(=O)(=O)c2cn(C)cn2)Oc2ccc(NC(=O)CCC(F)(F)F)cc2C1=O,16.9
Cc1noc(C)c1S(=O)(=O)Nc1ccc2c(c1)C(=O)N([C@@H](C)CO)C[C@H](C)[C@H](CN(C)C(=O)Nc1cccc3ccccc13)O2,24.4
O=C(Nc1cc(F)ccc1F)N1C[C@@H]2[C@H](c3ccccc31)[C@H](CO)N2CC1CCCC1,-16.0
N#Cc1cccc(-c2ccc([C@H]3[C@@H](CO)N4CCCCN(C(=O)Nc5ccccc5)C[C@H]34)cc2)c1,2.0
CN1C(=O)c2cc(NC(=O)C3CCCC3)ccc2OC[C@H]2O[C@H](CC(=O)O)CC[C@H]21,-11.3
CN1c2ccc(C3=CCCCC3)cc2[C@@H]2[C@@H](CCN2S(=O)(=O)c2ccccc2)[C@@H]1CO,-20.4
COc1ccc(S(=O)(=O)Nc2ccc3c(c2)CC(=O)N([C@H](C)CO)C[C@H](C)[C@H](CN(C)C)O3)cc1,-10.1

# The listing continues.
SMILES,UUG fidelity
C[C@H]1CN([C@@H](C)CO)C(=O)c2cccc(NC(=O)Nc3ccc(F)cc3)c2O[C@H]1CN(C)S(=O)(=O)c1ccc(Cl)cc1,11.6
CN1C(=O)c2cc(NC(=O)C3CC3)ccc2OC[C@H]2O[C@H](CC(=O)NC3CCC3)CC[C@H]21,40.1
C[C@H](CO)N1C[C@H](C)[C@H](CN(C)C(=O)Nc2cccc3ccccc23)Oc2ncc(C#Cc3cccc(F)c3)cc2C1=O,-2.8
COc1ccccc1-c1ccc([C@H]2[C@@H](CO)N3CCCCN(S(=O)(=O)c4cn(C)cn4)C[C@@H]23)cc1,13.6
COc1ccc(NC(=O)N(C)C[C@@H]2Oc3c(NS(=O)(=O)c4cccs4)cccc3C(=O)N([C@@H](C)CO)C[C@@H]2C)cc1,6.1
C[C@@H]1CN([C@@H](C)CO)C(=O)Cc2cc(NC(=O)Cc3cn(C)c4ccccc34)ccc2O[C@@H]1CN(C)Cc1ccncc1,1.8
C[C@H]1CN([C@@H](C)CO)C(=O)c2cc(NC(=O)C3CC3)ccc2O[C@@H]1CN(C)Cc1ccc(-c2ccccc2)cc1,-7.8
C[C@@H]1CN([C@H](C)CO)C(=O)c2cccc(NS(=O)(=O)c3ccc(Cl)cc3)c2O[C@@H]1CN(C)C(=O)Nc1ccc(C(F)(F)F)cc1,-5.0
CN1C(=O)c2cc(NS(=O)(=O)c3cccc(F)c3)ccc2OC[C@@H]2O[C@@H](CC(=O)O)CC[C@@H]21,10.5
CC(C)C#Cc1ccc([C@H]2[C@@H](CO)N3CCCCN(C(=O)NC(C)C)C[C@@H]23)cc1,11.2
C[C@H]1CN([C@@H](C)CO)C(=O)Cc2cc(NC(=O)Cn3cnnn3)ccc2O[C@H]1CN(C)Cc1ccc(-c2ccccc2)cc1,4.4
O=C(Nc1ccccc1)N1CCCCN2[C@@H](CO)[C@H](c3ccc(-c4ccccc4)cc3)[C@@H]2C1,-1.4
CN1c2ccc(Br)cc2[C@@H]2[C@@H](CCN2C(=O)C2CCOCC2)[C@H]1CO,16.3
CN1CCCCN2[C@H](C1)[C@H](c1ccc(-c3cccnc3)cc1)[C@@H]2CO,-11.7

# An excerpt; the hit share may differ from the screen's.
